# Screening results from PubChem.
# ALR H2O2 inh – inhibitors of human sulfhydryl oxidase ALR. purified ALR, DTT oxidation, H2O2 HRP-luminol luminescence. inhibition, % (no concentration beside the values). 3.8% of 290,000 active. P55789. AID 485317;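 active means mean and each replicate at 75% or more; inconclusive means only one of the two met; inactive means neither met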;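 further: stock transfer was 7.5 nL into about 7.5 µL; 0% = neutral wells and 100% = wells with inactivated enzyme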
# Target sequence (P55789 whole entry, looked up): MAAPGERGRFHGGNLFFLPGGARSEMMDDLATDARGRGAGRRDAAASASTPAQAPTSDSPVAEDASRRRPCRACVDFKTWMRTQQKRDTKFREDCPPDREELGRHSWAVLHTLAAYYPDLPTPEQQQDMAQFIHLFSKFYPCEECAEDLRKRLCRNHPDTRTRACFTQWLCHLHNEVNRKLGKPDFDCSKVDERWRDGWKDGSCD
# Calb FLC – C. albicans growth modulation with fluconazole; C. albicans CaCi-2 (fluconazole-resistant clinical isolate) + fluconazole, Alamar Blue growth, 48 h; 0.57% of 300,000 active; AID 1979; growth inhibition, % (no concentration beside the values);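 active means most replicates above 75%; inconclusive means exactly half above 75%; inactive means most below 75%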;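 further: all wells also contain fluconazole at 8 µg/ml as a sub-toxic cotreatment; 0% = median of DMSO wells and 100% = median of geldanamycin control wells; wells of about 8 µL received 7.5 nL stock; the first replicate is given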
# B2AR ag – agonists of human beta-2 adrenergic receptor inducing internalization; 0.43% of 340,000 active; response, % (test concentration not listed); Am2.2-beta2AR cells, FAP receptor internalization, flow cytometry; reference of the scale not given here;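 active means response above a set limit, near 3 SD of response in nonfluorescent compounds, cut at about 42% in these data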;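 further: stock transfer was 100 nL into about 11 µL; a reference agonist was the positive control; negative values mostly stem from fluorescent compounds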
# Target sequence (P07550 whole entry, looked up): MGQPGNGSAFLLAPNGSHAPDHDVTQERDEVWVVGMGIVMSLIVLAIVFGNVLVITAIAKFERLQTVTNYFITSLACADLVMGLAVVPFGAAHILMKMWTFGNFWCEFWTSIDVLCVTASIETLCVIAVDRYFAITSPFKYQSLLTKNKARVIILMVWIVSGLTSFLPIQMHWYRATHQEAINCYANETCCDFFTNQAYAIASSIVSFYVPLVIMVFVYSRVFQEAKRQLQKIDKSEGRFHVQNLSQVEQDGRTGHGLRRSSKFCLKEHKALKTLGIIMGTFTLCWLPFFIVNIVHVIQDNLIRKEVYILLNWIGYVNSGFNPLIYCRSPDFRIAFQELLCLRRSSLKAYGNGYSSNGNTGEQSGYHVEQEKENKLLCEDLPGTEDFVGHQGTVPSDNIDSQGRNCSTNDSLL
# HNF4A DNA FP – change in binding of human HNF4 alpha to DNA; P41235; HNF4a-FITC DNA binding, fluorescence polarization, 1 h; activity change, % at 10 µM; 0.3% of 360,000 active; in the data active means activity change above about 30%, passing the limit was not always enough;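 further: controls were the assay level and a saturating level of protein; the project sought stronger binding though the title names inhibitors; some compounds called inactive have numbers as strong as hits; positive values seem to mean higher polarization but the record does not say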
# Target sequence (P41235 whole entry, looked up): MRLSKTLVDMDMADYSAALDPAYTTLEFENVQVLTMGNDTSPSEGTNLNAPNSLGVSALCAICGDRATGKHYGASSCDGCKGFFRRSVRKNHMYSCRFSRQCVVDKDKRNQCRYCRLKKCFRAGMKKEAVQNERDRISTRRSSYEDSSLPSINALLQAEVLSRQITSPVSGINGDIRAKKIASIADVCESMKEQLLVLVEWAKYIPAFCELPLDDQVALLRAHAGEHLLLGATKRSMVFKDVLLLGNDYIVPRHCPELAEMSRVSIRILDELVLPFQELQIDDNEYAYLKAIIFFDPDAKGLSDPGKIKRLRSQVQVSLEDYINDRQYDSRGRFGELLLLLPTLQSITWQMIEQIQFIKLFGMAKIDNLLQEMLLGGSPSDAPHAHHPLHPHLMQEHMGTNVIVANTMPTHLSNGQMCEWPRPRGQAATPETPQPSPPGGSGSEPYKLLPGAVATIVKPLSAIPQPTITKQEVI
# Vif TR-FRET – inhibitors of Vif binding to APOBEC3G peptide, primary screen, biochemical, TR-FRET, GST-Vif 1-94, biotin-A3G peptide, dose response retest (AID 1117319) | TR-FRET GST-Vif / biotin-A3G peptide binding; higher % means a stronger effect; test concentration not given here; strong numbers were not always called active | inhibition, %, or IC50 in µM where a hit was titrated | 0.57% of 260,000 active;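 active means above the screen mean plus three standard deviations and confirmed in dose response; inconclusive means results disagree or hit not tested in dose response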;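 further: Vif residues 1-94 fused to GST binding biotinylated APOBEC3G peptide 110-148; 0% = full assay without inhibitor and 100% = GST in place of GST-Vif; retest series ran down from 100 µM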
# RanGTP-Imp inh – disruptors of Ran-importin-beta complex formation – biochemical, FRET, CFP-Ran, YFP-importin-beta, homogeneous, primary screen; cell-free CFP-Ran/YFP-importin-beta FRET ratio; inhibition, % (no concentration beside the values); 1.1% of 300,000 active; AID 2216;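 active means most replicates above 15%; inconclusive means exactly half above 15%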;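 further: 0% = DMSO wells and 100% = Ran loaded with GDP instead of GTP; wells of about 40 µL received 100 nL stock; the first replicate is given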
# LANA-H2A inh – blocks KSHV LANA binding to histone H2A/H2B; Q9QR71; cell-free LANA-H2A/H2B peptide, fluorescence polarization; inhibition, % (concentration not given with the values); 0.6% of 320,000 active; AID 2629; in the data active means inhibition mostly above about 10%, no sharp cut-off; inactive means mostly below about 6.7%;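 further: stock transfer was 7.5 nL into about 10 µL; 0% = median of vehicle wells and 100% = median of positive control wells; one replicate is shown; the record names a cut of 25% in any replicate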
# * marks the source's active call; other numbers are inactive results; ? = inconclusive; . = no result given.
SMILES,ALR H2O2 inh,Calb FLC,B2AR ag,HNF4A DNA FP,Vif TR-FRET,RanGTP-Imp inh,LANA-H2A inh
CCOc1ccc(-c2c(C#N)c(N)nc3sc(C(=O)c4ccccc4)c(N)c23)cc1,-7,0,10,40*,10%,-14,11*
O=C(c1cnccn1)N(c1ccccc1)C1(C(=O)NC2CCCCC2)CCCCC1,-1,-3,-4,-8.1,23%,4.2,4.9
Cc1cccc(N2CN(Cc3cccnc3)CNC2=S)c1,-6,-15,10,-0.9,29%,7.1,-4.2
CCOC(=O)c1ccccc1NC(=O)c1cn(CC)c2nc(C)ccc2c1=O,-3,-3,14,-0.9,.,-0.7,1.7
Cc1cc(NC(=O)/C=C/c2ccccc2)no1,-2,-22,-2,-1.9,5%,2.1,0.6
COc1cccc(NC(=S)N(CCCN2CCN(C)CC2)Cc2ccco2)c1,3,-16,-2,4.9,12%,3.4,0.3
O=C(CSCc1c(F)cccc1Cl)NCc1cccnc1,-5,11,-3,8.0,2%,0.4,3.1
O=C(COc1ccccc1)NNC(=S)NC(=O)c1ccccc1,.,25,19,2.1,-3%,-3.2,-13
COCCN1C(=S)NC(c2cccc(C(F)(F)F)c2)C(C(=O)N2CCOCC2)=C1C (configuration not stated),1,-11,-1,1.1,.,-0.7,1.1
CC(C)N(c1ccccc1)c1ccc(NC(=O)COC(=O)CCN2C(=O)c3cccc([N+](=O)[O-])c3C2=O)cc1,12,-3,11,1.2,.,-0.7,5.4
C[C@H](CO)N1C[C@H](C)[C@@H](CN(C)S(=O)(=O)c2ccc(Cl)cc2)Oc2ccc(NS(=O)(=O)c3ccccc3)cc2CC1=O,-1,.,1,-0.2,.,.,-1.1
CSc1ncc(CN2CCCCC2C(=O)Nc2ccc(Oc3ccccc3)nc2)cn1 (configuration not stated),-1,8,-8,-0.3,.,3.6,-2.1
CC(C)OC(=O)c1ccc(COc2ccc3ccc(=O)oc3c2)o1,-6,-10,-3,2.5,.,-1.6,3.4
Cc1cc(C)cc(C(=O)NC(CC(N)=O)c2ccc(N3CCC(Cc4ccccc4)CC3)c([N+](=O)[O-])c2)c1 (configuration not stated),2,-1,-9,-2.0,.,-0.7,1.6
CCOc1ccc2c(c1)OC(c1ccc(OC)cc1)(C(F)(F)F)NC2=O (configuration not stated),-2,0,27,2.1,9%,0.8,-4.1
O=C1CN(c2cc(Cl)cc(Cl)c2)C(=O)CN1/N=C/c1cccnc1,1,1,-1,3.7,?,-1.7,-0.5
COc1ccc(CNC(=O)COc2cc(O)c3c(c2)OC(C)(C)CC3=O)c(OC)c1,19,-2,-7,2.9,.,1.5,3.5
CCCCCCc1c(O)nc(SCC(=O)O)[nH]c1=O,17,-8,1,-1.6,-4%,4.2,-2.2
CCOC(=O)Cn1nc(-c2ccccc2)c2cnc3ccc(C)cc3c21,10,-5,7,-3.2,87%,3.6,2.3
O=C(NCCCN1CCOCC1)c1cc(S(=O)(=O)N2CCN(c3ccccc3)CC2)ccc1Cl,20,2,0,-1.0,-1%,-1.4,0.8
COc1ccccc1-c1cc(C(=O)N/N=C/C=C/c2ccccc2[N+](=O)[O-])c2ccccc2n1,-6,47,-2,-1.4,2%,-0.4,0.9
C=CC[C@@H](CC(=O)N[C@@H](CO)Cc1ccccc1)C(=O)N[C@@H](COC(=O)[C@H](CC=C)CC(=O)OC(C)(C)C)Cc1c[nH]c2ccccc12,-7,.,-8,-6.1,.,.,2.5
COc1ccccc1NS(=O)(=O)NC(=O)c1cn(C)c2ccccc12,19,5,-7,1.5,.,-1.4,12
O=C1N/C(=N/N=C/c2ccco2)SC1Cc1ccccc1 (configuration not stated),2,61,-6,1.9,2%,-1.4,-1.1
CCOC(=O)C1=C(NC(=S)NC(=O)c2ccccc2)c2ccccc2CC1(C)C,-3,3,7,-1.2,23%,?,-4.6

# Continued; the last 2 above are carried over.
SMILES,ALR H2O2 inh,Calb FLC,B2AR ag,HNF4A DNA FP,Vif TR-FRET,RanGTP-Imp inh,LANA-H2A inh
O=C1N/C(=N/N=C/c2ccco2)SC1Cc1ccccc1 (configuration not stated),2,61,-6,1.9,2%,-1.4,-1.1
CCOC(=O)C1=C(NC(=S)NC(=O)c2ccccc2)c2ccccc2CC1(C)C,-3,3,7,-1.2,23%,?,-4.6
COc1ccc(N2CC(C(=O)Nc3c(C(N)=O)oc4ccccc34)CC2=O)cc1 (configuration not stated),.,5,-3,-3.7,-9%,1.5,3.1
O=C(N/N=C/C(Br)=C/c1ccccc1)c1ccccc1F,5,12,5,2.7,.,2.9,0.9
CCOC(=O)CN1C(=O)CN(c2ccc(C)cc2)C1=O,.,1,-4,1.1,11%,2.5,.
COc1ccc(N2CCN(C(=O)CN(C)S(=O)(=O)c3cnc[nH]3)CC2)cc1,87*,3,1,2.0,0%,0.1,2.2
CCOc1ccc(NC(=O)CN(c2ccc(OC)cc2)S(=O)(=O)c2cccs2)cc1,-1,.,1,-2.2,.,.,-2.1
COc1ccc(-c2ccc(C#N)c(SCC(=O)Nc3sc4c(c3C#N)CCC4)n2)cc1,1,-7,4,3.9,-6%,-0.9,1.3
CCOC(=O)C1CCN(S(=O)(=O)c2ccc(C)cc2)CC1,5,10,-4,-2.4,?,0.4,-2.4
O=C(CN1CCCC(O)C1)N1c2ccccc2Sc2ccc(C(F)(F)F)cc21 (configuration not stated),-1,6,0,-2.8,9%,1.9,1.0
CN(CCC#N)C(=O)COC(=O)c1ccccc1OCc1ccccc1Cl,-9,-10,6,4.2,24%,4.3,-2.9
CC(NC(=S)NC(=O)c1ccccc1)c1ccccc1 (configuration not stated),1,-14,0,1.2,.,4.1,-0.2
CC1(C)Cc2c(sc(NC(=O)COc3ccc(Cl)cc3)c2C#N)C(C)(C)N1,-1,5,-3,3.1,.,1.5,-1.2
CC(C)(C)OC(=O)CN1C(=O)NC(Cc2c[nH]c3ccccc23)C1=O (configuration not stated),.,-3,-1,1.8,-6%,3.7,1.0
COc1cccc(C2NC(c3cccc(OC)c3O)C(C)C(=O)C2C)c1O (configuration not stated),87*,3,11,0.1,21%,5.0,-3.3
O=C(CSc1ccc2nnc(-c3cccnc3)n2n1)Nc1ccc(F)cc1,-8,5,-10,0.1,7%,0.3,31*
CCNc1c([N+](=O)[O-])c(=O)n(CC)c2ccccc12,.,-17,1,-0.2,-2%,0.3,-1.5
CC(C)NCCOCCSc1ccc(Cl)cc1,-2,2,-1,-2.1,-9%,-0.4,-2.7
O=C(/C=C/Nc1ccc(F)cc1)c1cccs1,-12,2,3,-0.7,-11%,-2.6,-2.1
CCOCCn1c(SCC)nc2c1c(=O)[nH]c(=O)n2C,-1,11,-2,-2.8,31%,-1.5,2.5
COc1cc(Cl)c(C)cc1NC(=O)CSc1nc2ccccc2o1,-20,-4,0,0.0,3%,5.7,-0.8
COc1cccc(OC)c1C(=O)Nc1nnc(-c2cccs2)s1,29,19,-2,4.3,10%,7.4,-0.9
Nc1nc(NCCCN2CCOCC2)nc(Nc2ccccc2)c1[N+](=O)[O-],-2,17,-6,-2.6,0%,-1.8,-13
N#C/C(=C\c1c(Oc2ccccc2F)nc2ccccn2c1=O)C(=O)NC1CCS(=O)(=O)C1 (configuration not stated),11,-4,-3,0.4,.,128*,-4.5
COc1ccc(NC(=O)c2sc3nc(N4CCCC4)c4c(c3c2N)CC(C)(C)OC4)c(OC)c1,-6,10,5,7.7,.,-6.7,3.5
CC(C)c1nc(N2CCN(C(=O)c3ccco3)CC2)c(C#N)c2c1COC(C)(C)C2,-5,13,-1,-1.2,.,-2.9,-2.3
CC(C)CCn1c(SCC(N)=O)nc2c1c(=O)n(C)c(=O)n2C,5,4,13,3.9,-2%,-3.7,2.3

# The listing continues:
SMILES,ALR H2O2 inh,Calb FLC,B2AR ag,HNF4A DNA FP,Vif TR-FRET,RanGTP-Imp inh,LANA-H2A inh
CNCC(O)Cn1c2c(c3ccccc31)CCCC2 (configuration not stated),?,-9,0,0.6,9%,-2.7,1.2
COc1cc(NS(=O)(=O)c2ccc(NC(C)=O)cc2)cc(OC)c1,.,-1,3,0.2,9%,1.3,-1.3
COC(=O)C1=C(C)Nc2nc(-c3ccccc3)nn2C1c1ccc(C)o1 (configuration not stated),.,2,-6,3.7,4%,-3.2,1.9
CCC(C)(C)n1nnnc1C(c1ccc2ncccc2c1)N1CCCC(C)C1 (configuration not stated),-20,4,6,-1.4,-2%,-3.9,-3.4
C=CCn1c(C)cc(C(=O)CSc2nnc3c(Cl)cc(Cl)cn23)c1C,0,31,-3,2.1,17%,?,3.6
O=C1CN(c2ccccc2Cl)C(=O)CN1c1ccccc1Cl,2,-17,0,0.3,21%,0.6,2.5
Cc1ccc(N2CC(C(=O)Nc3cccnc3)CC2=O)cc1 (configuration not stated),-3,-21,3,3.6,-11%,1.7,4.3
CCCCc1ccc(/C(C)=N/Nc2cc(N3CCOCC3)nc(C)n2)cc1,-11,5,12,-0.3,-4%,-3.1,6.2
Cc1nc2c(C#N)c[nH]n2c(=O)c1CCO,-12,21,-5,-2.6,18%,5.3,0.2
COc1ccc(C)cc1S(=O)(=O)Nc1ccc2c(c1)OCO2,-12,-8,0,-6.9,?,-3.0,1.4
Cc1ccc(C(=O)N2c3ccc(F)cc3CCC2C)o1 (configuration not stated),-19,39,1,2.5,>100µM*,4.2,6.7
CCOc1ccc2[nH]c3nc(SCC(=O)NC4CC4)nnc3c2c1,-7,-6,-5,0.2,2%,-5.0,7.1
COc1ccc(NC(=O)COC(=O)c2c3c(nc4ccccc24)CCCC3)cc1Cl,-19,6,20,-1.7,4%,-0.7,1.7
COc1ccc(NC(=O)NCC(C)CSc2ccc(C)cc2)c(OC)c1 (configuration not stated),-26,8,-7,3.7,-6%,5.0,4.9
COc1ccc2c(CC(=O)O)cc(=O)oc2c1,-5,1,-2,2.9,18%,?,0.2
COC(=O)c1ccc(S(=O)(=O)N2CCOCC2)o1,2,-2,0,-2.4,-4%,3.1,-0.2
COc1ccc(-c2cc(C(=O)N3CCCc4ccccc43)no2)cc1OC,-15,-2,1,-1.0,?,0.1,-0.9
FC(F)Oc1ccc(NC(=S)NCCc2ccccn2)cc1,11,4,-4,-1.9,-12%,1.3,0.8
CCc1ccc(CNC(=O)CC2C(=O)NCCN2Cc2ccccc2F)nc1 (configuration not stated),-6,3,-7,0.3,-1%,4.7,-1.2
COc1ccc(C(C)NC(=O)c2ccncc2)cc1OC (configuration not stated),-10,4,-5,-2.3,-10%,0.8,2.5
COC(=O)C(Cc1ccccc1)P(=O)(c1ccccc1)c1ccccc1 (configuration not stated),0,-2,7,0.4,-12%,-0.9,-2.0
Cc1cccc(NC(=O)C2CC(=O)n3cnnc3S2)c1 (configuration not stated),2,-1,2,2.1,-10%,1.5,-1.2
Cc1cc(=O)c2cc(C(=O)c3ccccc3)ccc2[nH]1,3,0,4,-0.1,-3%,-2.0,5.9
CCOC(=O)C1=C(C)NC(=O)CC1c1cc(OC)c(OC)cc1Br (configuration not stated),-8,11,0,4.1,0%,1.7,2.2
Cc1nc(CC(=O)c2ccc(O)c(C)c2O)cs1,5,-4,4,2.7,30%,1.2,-0.1
COc1ccc(CNC(=O)Cn2nc(-c3ccc4c(c3)OCCO4)ccc2=O)cc1,-9,4,0,2.4,2%,2.1,4.5
COc1cc(C(CC(=O)Nc2cccc(C)n2)N2Cc3ccccc3C2=O)cc(OC)c1OC (configuration not stated),.,-1,-7,3.1,1%,3.5,0.4

# Three compounds from above, reduced to Calb FLC, ALR H2O2 inh and Vif TR-FRET.
mol | Calb FLC | ALR H2O2 inh | Vif TR-FRET
COc1ccc2c(CC(=O)O)cc(=O)oc2c1 | 1 | -5 | 18%
COc1ccc(CNC(=O)Cn2nc(-c3ccc4c(c3)OCCO4)ccc2=O)cc1 | 4 | -9 | 2%
CCOc1ccc2[nH]c3nc(SCC(=O)NC4CC4)nnc3c2c1 | -6 | -7 | 2%
